VACV mCherry inh: inhibitors of vaccinia virus infection (mCherry reporter signal); hit rate 0.63% among 310,000; AID 720579; Potency, µM (top dose mostly 36.5 µM), for the others: at the top dose activity change, negative = inhibition, hits mostly inhibitors; Vaccinia virus mCherry reporter infection, fluorescence; about a quarter of the inactives have no number; active = well fitted inhibition curve with a large enough effect; inconclusive = small, poorly fitted or top-dose-only effect; inactive = no such curve, though single readings can be large or run the other way; tested in A549 cells; further: nearly all actives have a fitted effect of over 35% in size; inactives centre near -10
VACV Venus inh: vaccinia inhibition (Venus reporter). Vaccinia virus Venus reporter expression, fluorescence. Potency, µM (series often up to 36.5 µM), inactives show top-dose activity change, negative = inhibition, hits mostly inhibitors. hit rate 0.46% among 330,000; active means well fitted inhibition curve with a large enough effect; inconclusive means small, poorly fitted or top-dose-only effect; inactive means no such curve, though single readings can be large or run the other way; tested in A549 cells; further: nearly all actives have a fitted effect of over 30% in size; inactives centre near -10
Active calls of the source: *; i = inactive; ? = inconclusive; nt = no result given; & = joins results of further samples; [ ] = dose if it differs, or a comment. On the % scale 0 is the no-effect control and ±100 the full control effect; potency means the concentration at half of the fitted maximal effect.

SMILES	VACV mCherry inh	VACV Venus inh
O=C(CCN=C1NS(=O)(=O)c2ccccc21)OCC(=O)c1ccc(F)c(F)c1	-15.9%	-1.6%
CCc1ccc(/C(C)=N/Nc2cc(Cl)nc(C)n2)cc1	i	-9.5%
Cc1ccc2nc(SCc3nc4c(cnn4-c4ccccc4)c(=O)[nH]3)[nH]c2c1	-17.8%	-11.0%
COc1ccc(-n2c(SCC(=O)Nc3cc(C)on3)nc3c([nH]c4ccccc43)c2=O)cc1OC	-18.5%	-17.7%
Cc1cccc(NC(=O)c2ccoc2C)n1	nt	-9.9%
Cc1ccc(Nc2nc3c(S(=O)(=O)c4ccccc4)nnn3c3ccsc23)c(C)c1	i	-22.8%
Cc1ccc(N(CC(=O)NC(C)(C)C)C(=O)CNC(=O)c2cccs2)c(C)c1	-10.4%	-3.9%
Nc1nonc1NC(=O)NN=C1CCCCC1	-21.0%	-23.0%
N#Cc1c(NC(=O)COC(=O)c2ccc(F)cc2)sc2c1CCC2	-6.1%	-2.8%
CC1(C2CC(C(F)(F)F)n3nc(C(=O)O)cc3N2)CC1 (stereo not given)	5.7%	9.0%
CC(C)c1ccc(NC(=O)CSc2n[nH]c(=O)n2-c2ccc3c(c2)OCCO3)cc1	i	-6.8%
COc1ccccc1CNC(=O)C1(NC(=O)Nc2ccc(C)cc2)CCCCC1	-29.1%	?
O=C(c1ccco1)N1CCN(Cc2nnc(-c3cccc(Cl)c3)o2)CC1	10.6%	-5.3%
Cc1cccc(NC(=O)CSCC(=O)Nc2ccc(S(=O)(=O)N3CCCC3)cc2)c1	-28.6%	-14.6%
O=C(Nc1ccnn1C1CCN(Cc2cccnc2)CC1)c1ccccc1Cl	-13.6%	-10.0%
Cc1cc(NC(=O)c2cc(-c3cccs3)nc3ccccc23)no1	7.7%	-19.6%
O=S(=O)(NC1CCCCC1)c1ccc(-c2csnn2)s1	-27.5%	-23.4%
Oc1[nH]c(=S)sc1C=C1N=c2ccccc2=N1	i	-2.9%
N#Cc1c(NC(=O)CN2CCN(S(=O)(=O)c3ccc4c(c3)OCCO4)CC2)sc2c1CCC2	-6.7%	1.5%
CCOc1c2ccc(C(=O)NCc3ccc(C(F)(F)F)cc3C(F)(F)F)cc2nn1C	-3.2%	-11.2%

Overlap with the part before: four entries, followed by the next part.
SMILES	VACV mCherry inh	VACV Venus inh
O=S(=O)(NC1CCCCC1)c1ccc(-c2csnn2)s1	-27.5%	-23.4%
Oc1[nH]c(=S)sc1C=C1N=c2ccccc2=N1	i	-2.9%
N#Cc1c(NC(=O)CN2CCN(S(=O)(=O)c3ccc4c(c3)OCCO4)CC2)sc2c1CCC2	-6.7%	1.5%
CCOc1c2ccc(C(=O)NCc3ccc(C(F)(F)F)cc3C(F)(F)F)cc2nn1C	-3.2%	-11.2%
Cc1ccccc1OCC(=O)NC1CCCCCCC1	i	-9.4%
CCc1ccc(-n2nc(CO)c(C(=O)NCC(c3ccccc3)c3ccccc3)n2)cc1	-29.9%	?
COc1ccc(N2CCN(C(=O)c3ccc(NS(=O)(=O)c4cccs4)cc3)CC2)cc1	-9.2%	-3.2%
Cc1ccc(NC(=O)COC(=O)/C=C/c2cccs2)c(C)c1	-11.7%	-19.6%
Cc1cccc(C)c1NC(=O)C1(C)CN(S(C)(=O)=O)CC(=O)N1CC(F)(F)F (stereo not given)	-10.8%	19.1%
COc1ccc(S(=O)(=O)N(CC(=O)Nc2ccccc2C(=O)N2CCOCC2)c2ccc(F)cc2)cc1	-11.5%	-3.6%
Cc1cc(Br)ccc1NC(=O)CN(C)C(=O)C1CCN(c2ncnc3sc(C)c(C)c23)CC1	?	?
COc1ccc(-c2sccc2C(C)C(=O)O)cc1 (stereo not given)	i	-10.6%
Cc1cccc(C(=O)NC(=S)NNC(=O)COc2c(C)cccc2C)c1	-22.6%	?
CCOC(=O)C1=C(c2ccccc2)NC(=O)NC1c1ccc(OCC#N)c(OC)c1 (stereo not given)	-14.8%	-9.9%

One compound at a time (already shown):
CCOC(=O)C1=C(c2ccccc2)NC(=O)NC1c1ccc(OCC#N)c(OC)c1 (stereo not given) in the list: VACV mCherry inh = -14.8%; VACV Venus inh = -9.9%
Cc1cccc(C)c1NC(=O)C1(C)CN(S(C)(=O)=O)CC(=O)N1CC(F)(F)F (stereo not given) in the list: VACV mCherry inh = -10.8%; VACV Venus inh = 19.1%
COc1ccc(N2CCN(C(=O)c3ccc(NS(=O)(=O)c4cccs4)cc3)CC2)cc1 in the list: VACV mCherry inh = -9.2%; VACV Venus inh = -3.2%

Continued.
SMILES	VACV mCherry inh	VACV Venus inh
O=S(=O)(Nc1ccccc1N1CCCCC1)c1ccc(F)cc1	-3.1%	-18.7%
CCOC(=O)C1CCCN(c2cc(C)nc3cc(-c4ccc(F)cc4)nn23)C1 (stereo not given)	-19.6%	-6.1%
CC1(C)Cc2ccccc2C(=NCCCC(=O)O)N1	-9.5%	2.8%
CC1CCN(c2c(NCc3ccc(C(=O)NCc4cccnc4)cc3)c(=O)c2=O)CC1	-9.4%	2.1%
CNC(C)C(=O)NC(C(=O)N1CCCC1C(=O)NNc1ccccc1)C(C)C (stereo not given)	i	-7.3%
CC1(C(=O)NS(=O)(=O)c2ccccc2Cl)CCN1C(=O)C1(c2ccccc2)CC1 (stereo not given)	i	2.6%
CCc1ccc(NC(=O)C2CCCN(S(=O)(=O)c3ccc4c(c3)CC(C)N4C(C)=O)C2)cc1 (stereo not given)	?	?
COc1cc(OC)c(NS(=O)(=O)c2coc(C(N)=O)c2)cc1Cl	-9.5%	0.8%
O=C(NCc1ccco1)c1ccccc1Br	i	-14.6%
Cc1csc(SCC(=O)NC(=O)NC(C)(C)C)n1	-12.0%	-3.1%

Fetched one by one from the list above:
SMILES	VACV mCherry inh	VACV Venus inh
CC1CCN(c2c(NCc3ccc(C(=O)NCc4cccnc4)cc3)c(=O)c2=O)CC1	-9.4%	2.1%
CC1(C(=O)NS(=O)(=O)c2ccccc2Cl)CCN1C(=O)C1(c2ccccc2)CC1 (stereo not given)	i	2.6%
O=C(NCc1ccco1)c1ccccc1Br	i	-14.6%

New compounds follow
SMILES	VACV mCherry inh	VACV Venus inh
CCOC(=O)c1ccc(NC(=O)NCc2c(C)nn(CC)c2C)cc1	i	10.4%
COc1cc(NC(=O)c2cccc(F)c2)ccc1NC(=O)c1cc2ccccc2o1	-28.1%	-16.9%&-28.0%
Cc1ccc(S(=O)(=O)N2CCC(=O)N(C(COCc3cccc(C(F)(F)F)c3)Cc3ccccc3)CC2)cc1 (stereo not given)	?	-24.9%
COc1ccc(-c2csc3ncnc(Nc4cccc(OC)c4)c23)cc1	-8.2%	10.3%
COc1ccc2ccc(=O)oc2c1CC(=O)C(C)C	0.4%	-6.9%
Cc1cc(C)c2c(=O)n3c(nc2c1)C(C)NC(=O)c1cccnc1-3 (stereo not given)	-13.1%	-16.8%
CC(=O)c1ccc(-c2nnc(CCC(=O)N(C)Cc3c(C)nc4ccccn34)o2)s1	-10.0%	-11.9%
CCOC(=O)c1ccccc1NC(=O)CSc1nc(=O)[nH]c2c1CCC2	-1.9%[7.34 µM]	-7.9%[7.34 µM]
COP(=S)(OC)Oc1ccc(Sc2ccc(OP(=S)(OC)OC)cc2)cc1	-5.6%	-17.6%
Cc1ccc(NC(=O)c2ccc(S(=O)(=O)N3CCCC3)cc2)nc1	-11.8%	-6.7%

Sorted by molar mass (highest first): some entries from above
SMILES	VACV mCherry inh	VACV Venus inh
CC(=O)c1ccc(-c2nnc(CCC(=O)N(C)Cc3c(C)nc4ccccn34)o2)s1	-10.0%	-11.9%
COc1cc(NC(=O)c2cccc(F)c2)ccc1NC(=O)c1cc2ccccc2o1	-28.1%	-16.9%&-28.0%
CCOC(=O)c1ccccc1NC(=O)CSc1nc(=O)[nH]c2c1CCC2	-1.9%[7.34 µM]	-7.9%[7.34 µM]
CCOC(=O)c1ccc(NC(=O)NCc2c(C)nn(CC)c2C)cc1	i	10.4%
Cc1cc(C)c2c(=O)n3c(nc2c1)C(C)NC(=O)c1cccnc1-3 (stereo not given)	-13.1%	-16.8%
COc1ccc2ccc(=O)oc2c1CC(=O)C(C)C	0.4%	-6.9%

Next section.
SMILES	VACV mCherry inh	VACV Venus inh
CCOc1ccc2c(c1)C(c1ccc(C)cc1)=NNC(c1ccc(C)cc1)=N2	nt	?
CCCCOC(=O)n1c(=O)oc2cc(S(=O)(=O)N3CCCCC3)ccc21	-16.2%	-24.5%
Cc1ccc(S(=O)(=O)N2C[C@H]3C(=O)C[C@@H](c4ccc(Cl)cc4)N(S(=O)(=O)c4ccc(C)cc4)[C@H]3C[C@H]2c2cccc3ccccc23)cc1	22.0%	-6.0%
Cc1ccc(NC(=O)NC2C(NC(=O)Nc3ccc(C)cc3)N(C)C(=O)N2C)cc1 (stereo not given)	-3.8%	-19.6%
COc1ccc(NC(=O)CN2CCN(c3nc(-c4cccc(OC)c4)cs3)CC2)cc1	-19.4%	-19.7%
CCOc1ccccc1NC(=O)CSc1nccn1Cc1ccc(F)cc1	i	-10.1%
CCN(C(=O)CSc1nnc2c3ccccc3n(CC)c2n1)C1CCS(=O)(=O)C1 (stereo not given)	?	?
O=C(CCCOc1ccc(Cl)cc1Cl)NCCc1ccccn1	-5.5%	6.0%
COc1ccc(Cn2ccc3nc(C)c(C(=O)NCc4ccc(OC)cc4OC)cc3c2=O)cc1	-5.6%	-14.1%
COc1ccc(OC)c(S(=O)(=O)Nc2cccc(-c3ccc4nncn4n3)c2)c1	i	-8.3%
COc1cc2c(cc1OC)/C(=C/C(=O)N1CCOCC1)NC(C)(C)C2	nt	-23.8%
COc1ccc(S(=O)(=O)n2c(CCN3CCOCC3)nc3ccccc32)cc1	-17.5%	-5.7%
Nc1nccc(-c2ccc(-n3cnc4ccccc43)cc2)n1	i	-19.1%
CCc1nnc(NC(=O)CN2CCN(Cc3cccc(F)c3)CC2)s1	-12.6%	-9.3%
CC(C)(C)OC(=O)N1CCC(CNC(=O)c2ccccc2)CC1	-2.9%[7.34 µM]	-3.3%[7.34 µM]

Source: PubChem (National Center for Advancing Translational Sciences (NCATS))
